Screens deposited in PubChem BioAssay by National Center for Advancing Translational Sciences (NCATS).
SARS PLP yeast: blocks SARS-CoV papain-like protease in a yeast assay; S. cerevisiae expressing SARS-CoV PLpro, growth rescue; control for the full effect not named in the record; Potency, µM (series often up to 32.9 µM), inactives show top-dose activity, positive = growth rescue; 0.19% of 330,000 active; AID 485353; also: 0% is about no effect; nearly all actives have a fitted effect of over 55% in size; growth read by luminescence after 48 h
MARV entry inh: blocks Marburg virus binding to or entry into cells. Marburg virus pseudotyped entry inhibition, cell reporter; control for the full effect not named in the record; about a third of the inactives were read at about 46 µM. Potency, µM (doses to about 37.8 µM), without a hit: at the top dose activity change, negative = inhibition, most hits filed as inhibitors. 1.8% of 300,000 active; active = well fitted inhibition curve with a large enough effect; inconclusive = small, poorly fitted or top-dose-only effect, or effect the other way; inactive = flat fitted curve, though single readings scatter; tested in HEK293 cells; about a fifth of its hits are not listed in these tables; also: % is scaled to controls: 0 for no effect and ±100 for the full control effect; luciferase read-out
NS1 function inh: influenza NS1 inhibition. S. cerevisiae slowed by influenza A NS1, growth recovery by OD600. Potency, µM (doses to about 46.1 µM), inactives show at the top dose activity, positive = more growth. 0.4% of 270,000 active. AID 2326; also: actives are rising curves; nearly all actives have a fitted effect of over 50% in size
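Read-out: OD600 growth recovery of NS1-expressing budding yeast. Cells grown overnight at 30C in -URA glucose medium, washed, resuspended and diluted 1:100 in 2% galactose assay medium, pH 6.0. Same strain lacking NS1 served as positive control.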
StopGo reporter: FMDV 2A StopGo reporter, luciferase signal | 1.2% of 410,000 active | Potency, µM (series often up to 57.9 µM), for the others: top-dose signal change, negative = less light | AID 1159524 | human cells with a luciferase reporter of 2A StopGo recoding; control for the full effect not named in the record; active = well fitted falling curve with a large enough effect; inconclusive = small, poorly fitted or top-dose-only effect; inactive = no such curve, though single readings can be large or run the other way; tested in HEK293T cells; also: % is scaled to controls: 0 for no effect and ±100 for the full control effect; nearly all actives have a fitted effect of over 45% in size; luciferase light after 4 h
Cruzain inh Det: inhibitors of Trypanosoma cruzi cruzain with detergent; purified cruzain, Z-FR-AMC fluorescence, 0.01% Triton; P25779; AID 1478; Potency, µM, inactives show max response, negative = inhibition, hits mostly inhibitors; 0.43% of 200,000 active; active = well fitted curve in the direction sought with a large enough effect; inconclusive = small, poorly fitted or top-dose-only effect, or another doubt; inactive = no such curve, though single readings can be large; an effect the other way counts as inactive or inconclusive;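 also: plate controls were neutral wells for no effect and buffer without enzyme for full effect; nearly all actives have a fitted effect of over 40% in size; top concentration of the series not given in the record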
Target sequence (P25779 123-467 limits assumed): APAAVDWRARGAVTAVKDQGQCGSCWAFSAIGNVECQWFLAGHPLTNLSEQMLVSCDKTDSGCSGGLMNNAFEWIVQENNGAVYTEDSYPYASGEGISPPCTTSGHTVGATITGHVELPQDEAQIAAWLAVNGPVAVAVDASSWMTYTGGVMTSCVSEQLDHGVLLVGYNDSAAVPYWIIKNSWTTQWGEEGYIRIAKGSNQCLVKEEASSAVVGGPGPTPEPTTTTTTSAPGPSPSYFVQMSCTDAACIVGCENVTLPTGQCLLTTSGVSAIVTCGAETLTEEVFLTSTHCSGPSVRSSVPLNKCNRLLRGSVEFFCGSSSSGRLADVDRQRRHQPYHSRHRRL
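Cruzain (1.5 nM) preincubated 15 min at RT with compound in 100 mM sodium acetate pH 5.5, 5 mM DTT, 0.01% Triton X-100. Reaction started with 2 uM Z-FR-AMC; AMC fluorescence (ex 360/em 450 nm) change over 60 s gave rate.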
LASV entry inh: inhibitors of Lassa virus binding or cell entry. 1.2% of 300,000 active. Lassa virus pseudotype entry inhibition, cell reporter; control for the full effect not named in the record. Potency, µM (doses to about 37.9 µM), inactives show at the top dose activity change, negative = inhibition, hits mostly inhibitors; active means well fitted inhibition curve with a large enough effect; inconclusive means small, poorly fitted or top-dose-only effect, or effect the other way; inactive means flat fitted curve, though single readings scatter; tested in HEK293 cells; also: % is scaled to controls: 0 for no effect and ±100 for the full control effect; nearly all actives have a fitted effect of over 50% in size; luciferase read-out
RE007 growth inh: less growth of the S. pombe RE007 Vpr strain; S. pombe RE007 Vpr strain, BacTiter-Glo ATP luminescence, 24 h; control for the full effect not named in the record; 0.21% of 360,000 active; Potency, µM (top dose mostly 92.2 µM), for inactives: at the top dose activity change, negative = less growth; AID 651644; active = well fitted falling curve with a large enough effect; inconclusive = small, poorly fitted or top-dose-only effect; inactive = no such curve, though single readings can be large or run the other way;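 also: % is scaled to controls: 0 for no effect and ±100 for the full control effect; nearly all actives have a fitted effect of over 50% in size; the assay follows cell death caused by Vpr and the record does not say whether a fall means rescue or toxicity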
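Fission yeast strain RE007, carrying one chromosomally integrated HIV-1 vpr copy, was seeded at OD 0.01 in PMG+AL medium with 23 nL pinned compound. After 24 h at 30 °C and 99% humidity, viability was read by BacTiter-Glo luminescence.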
Cruzain inh noDet: blocks cruzain activity in detergent-free assay. P25779. Potency, µM, for inactives: max response, negative = inhibition, hits mostly inhibitors. purified cruzain, Z-FR-AMC fluorescence, no detergent. 2.3% of 200,000 active; active = well fitted curve in the direction sought with a large enough effect; inconclusive = small, poorly fitted or top-dose-only effect, or another doubt; inactive = no such curve, though single readings can be large; an effect the other way counts as inactive or inconclusive;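 also: plate controls were enzyme without inhibitor for no effect and buffer without enzyme for full effect; nearly all actives have a fitted effect of over 40% in size; top concentration of the series not given in the record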
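Detergent-free condition (0.00005% Triton X-100) in acetate buffer pH 5.5 with DTT. 1.5 nM enzyme and compound were pre-mixed 15 min, then 2 uM Z-FR-AMC substrate added; reaction progress from fluorescence change between first and third reads (60 s).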
Active calls of the source: *; ? = inconclusive; . = no result given; & = joins results of further samples; [ ] = remark or other dose. Unless noted, calls follow the shape of the dose curve; as a rule, active means well fitted rising curve with a large enough effect; inconclusive means small, poorly fitted or top-dose-only effect; inactive means no such curve, though single readings can be large or run the other way. Potency is read from the fitted curve at half-maximal effect.

SMILES	SARS PLP yeast	MARV entry inh	NS1 function inh	StopGo reporter	Cruzain inh Det	LASV entry inh	RE007 growth inh	Cruzain inh noDet
O=C(Oc1ccc(N(C(=O)c2ccncc2)S(=O)(=O)c2ccc(F)cc2)cc1)c1ccncc1	-5.6%	-2.8%	.	-14.2%	.	0.3%	1.1%	.
CCOC(=O)c1c(S(=O)(=O)N2CCC(C(=O)N3CCN(c4ccccc4F)CC3)CC2)c(C)n(C)c1C	.	.	.	6.0%	0.2%	-13.6%[46.1 µM]	.	?
CCN(CC)c1ccc2cc(-c3nc4ccccc4n3C)c(=O)oc2c1	7.7%	36.8%&-6.1%	-3.5%	41.2%[activator]	-4.1%	-1.4%	-12.6%	-17.6%
CCOc1ccc2c(c1)c(=O)c(S(=O)(=O)c1ccc(F)cc1)cn2CC(=O)Nc1ccccc1C	.	-10.2%[46.1 µM]	.	8.9%	-3.6%	3.0%[46.1 µM]	.	-14.7%
O=C(CN1C(=O)c2ccc([N+](=O)[O-])cc2C1=O)NC1CCS(=O)(=O)C1 (stereo not given)	2.1%	6.6%	.	1.6%	.	0.8%	-14.5%	.
O=[N+]([O-])c1cc(CN(CCO)CCO)ccc1O	0.6%	4.5%[46.1 µM]	3.9%	-7.0%	.	2.5%	5.1%	.
CCOCCCNC(=O)c1ccc(Cn2c(=O)c3cccn3c3cccnc32)cc1	.	.	.	-4.7%	-1.4%	-13.2%[46.1 µM]	.	7.1%
CC(=O)N1CCc2cc(S(=O)(=O)NC(C(=O)Nc3nc(C)cs3)C(C)C)ccc21 (stereo not given)	2.0%	18.4%	7.0%	-15.2%	-0.5%	-0.2%	2.9%	4.4%
CC1CCc2c(sc(NC(=O)/C=C/c3cccs3)c2C(=O)O)C1 (stereo not given)	-6.5%	.	-26.9%	10.6%	.	.	?	.
CC1=C(C(=O)OCC2CCCO2)C(c2coc3ccc(C)cc3c2=O)C2=C(CCCC2=O)N1 (stereo not given)	2.2%	-14.9%[46.1 µM]	.	6.0%	.	?	-5.1%	.
CCOc1ccc(-c2ncncc2-c2ccc(OC)c(OC)c2)c(O)c1	2.3%	.	-5.0%	-22.1%	.	.	5.5%	.
CC(C)(C)c1ccc(S(=O)(=O)N2CCN(c3ccccn3)CC2)cc1	-0.1%	.	-2.7%	-4.8%	.	.	-13.6%	.
COc1ccc(CNC(=O)CN(C(=O)c2ccc(CN3CCOCC3)o2)C2CCCC2)cc1	-19.3%	-3.6%	3.6%	.	-11.4%	-5.1%	-7.0%	-9.8%
O=C(O)CCCc1nc2ccccc2s1	1.2%	13.9%[46.1 µM]	-0.8%	-16.2%	2.2%	-18.4%	-6.4%	-11.5%
CCc1cc(C(=O)N(CCCOC)c2c(N)n(Cc3ccccc3)c(=O)[nH]c2=O)sc1C	.	-1.8%[46.1 µM]	.	-6.8%	.	?	10.8%	.
CCOc1ccc(CCNC(=O)c2cc3c(s2)-c2c(C)cccc2OC3)cc1	.	11.0%[46.1 µM]	.	-4.9%	-0.2%	.	.	4.4%
COc1ccc(NC(=O)CCN2C(=O)/C(=C/c3ccc4c(c3)OCO4)SC2=S)cc1	-1.6%	-1.6%	7.0%	0.0%	.	-27.2%	0.7%	.
CCOc1ccc(OCC)c(NC(=O)C2CCN(S(=O)(=O)c3c(C)[nH]c(=O)[nH]c3=O)CC2)c1	0.4%	-2.6%[46.1 µM]	.	-7.6%	.	19.7%	-3.6%	.
Cc1ccccc1N1CCN(S(=O)(=O)c2ccc3ccccc3c2)CC1	9.1%	?	8.6%	-10.7%	.	?	6.8%	.
Cc1[nH]c(=O)[nH]c(=O)c1/C=N/NC(=O)[C@@H](N)CC(C)C	-0.4%	.	0.4%	2.7%	.	.	12.7%	.
CCCCOc1ccc(C(=O)CCN2CCOCC2)cc1	-24.3%	?	.	-22.8%	.	3.5%	?	.
COC(=O)NNC(=O)C1CCC(C(=O)NNC(=O)OC)CC1 (stereo not given)	-32.7%	?	-6.8%	-12.7%	-1.7%	-0.3%	31.4%	4.4%
Cc1ccccc1-c1nc(CN2CCC(C(=O)NCc3ccc(F)cc3)CC2)c(C)o1	.	?	.	-22.6%	-1.9%	-11.9%[46.1 µM]	.	-15.6%
CC(C)COc1nc2ccccc2nc1N1CCN(C)CC1	0.0%	.	-6.2%	-2.9%	.	.	-11.1%	.
COc1ccc(-c2c(C)nc3c(-c4ccc(F)cc4)cnn3c2N)cc1	-0.5%	.	8.2%	31.4%[activator]	.	.	-2.5%	.

New compounds follow
SMILES	SARS PLP yeast	MARV entry inh	NS1 function inh	StopGo reporter	Cruzain inh Det	LASV entry inh	RE007 growth inh	Cruzain inh noDet
O=C(O)c1ccccc1NC(=O)N1c2ccccc2Sc2ccccc21	.	.	.	9.4%	-14.5%	11.9%[46.1 µM]	.	-14.9%
CC(C)C1CCN(C(=O)C2CCC(=O)N(CCc3ccc(Cl)cc3)C2)CC1 (stereo not given)	-1.8%	5.7%	-14.8%	?	.	-18.0%	0.4%	.
O=C(Nc1cccc2ccccc12)c1ccc(Br)o1	-4.1%	0.7%	-11.0%	-7.2%	-6.7%	-2.9%	-15.8%	-8.7%
Cc1cc(NC(=O)c2cc(-c3cccc(Cl)c3)on2)n(-c2ccccc2)n1	.	-11.0%[46.1 µM]	.	-0.3%	-2.1%	0.9%[46.1 µM]	.	-7.8%
Cn1c(=O)c2c(nc(Br)n2CCSc2nnnn2-c2ccccc2)n(C)c1=O	-7.5%	-19.1%&-19.1%	-18.6%	?	-6.9%	-22.7%	3.3%	-11.5%
COc1ccc(F)cc1S(=O)(=O)Nc1ccncc1	5.0%	.	14.2%	16.9%	.	.	-0.6%	.
C/C(=N/NC(=O)c1ccncc1)c1ccc(NC(=O)c2ccccc2)cc1	-1.5%	.	-5.7%	21.6%	.	.	-4.1%	.
CCOC(=O)C1=C(CS(=O)(=O)c2ccccc2)NC(=O)NC1c1cccc(OC)c1 (stereo not given)	3.4%	3.4%[46.1 µM]	.	-12.7%	.	?	10.8%	.
COCc1[nH]nc2c1C(c1ccc(OC)c(OC)c1)C(C#N)=C(N)O2 (stereo not given)	1.4%	-1.0%[46.1 µM]	9.3%	5.8%	2.9%	-12.7%	-4.7%	-14.0%
O=C(NNc1cc(N2CCOCC2)nc(N2CCOCC2)n1)C12CC3CC(CC(C3)C1)C2	4.7%	-1.3%	6.5%	-26.8%	0.3%	-7.2%	.	-6.2%
COc1ccc(CC(=O)NC(C)CCc2ccccc2)cc1 (stereo not given)	-1.8%	17.4%[46.1 µM]	-8.5%	-3.6%	.	?	5.8%	.
CN(CC(=O)Nc1ccccc1C(F)(F)F)C(=O)C1CCN(S(=O)(=O)c2ccc3c(c2)OCCO3)CC1	7.6%	14.4%	.	-13.4%	.	-0.4%	-4.5%	.
Cc1ccc(NC(=O)CSCc2cc(=O)n3cc(C)sc3n2)cc1	5.5%	.	-8.4%	-2.2%	.	.	8.4%	.
COc1ccc(C)cc1NCC(=O)Nc1ccc(C(C)(C)C)cc1	-16.3%	-4.9%	-1.9%	-24.3%	-11.5%	-16.0%	-3.2%	-19.1%
C/C(=N\NC(=O)Cc1cccn1C)c1cccc2ccccc12	0.3%	?	11.7%	1.1%	2.4%	-20.4%	6.7%	11.0%
Fc1cc(F)cc(NC(=S)NN2CCOCC2)c1	0.2%	11.2%	-2.0%	-17.6%	.	7.6%	10.0%	.
O=C(c1ccco1)N1CCN(C(=O)C2CC2)CC1	8.5%	14.4%	-0.5%	-18.1%	-1.2%	-3.8%	7.5%	-2.4%
COc1ccccc1NC(=O)Nc1nc(CC(=O)Nc2ccccc2F)cs1	4.4%	-0.9%	.	-10.0%	.	3.9%	2.2%	.
Nc1c(-c2ccc(Cl)cc2)cnc2c(-c3ccc(F)cc3)cnn12	-1.1%	.	3.0%	6.3%	.	.	5.1%	.
CC(Oc1ccccc1)C(=O)Nc1ccccc1F (stereo not given)	-3.7%	6.2%	0.7%	.	-5.2%	10.3%	-9.1%	1.6%
COc1ccc(Cl)cc1C(=O)Nn1cnnc1	-0.1%	.	8.2%	-1.1%	.	.	-5.2%	.
CCOC(=O)N1CCC(NS(=O)(=O)c2cc(C(=O)OC)n(C)c2)CC1	0.3%	.	-11.7%	-17.9%	.	.	8.2%	.
COc1ccc(Cl)cc1Nc1nc2ccc(C)cc2n2cnnc12	-0.1%	5.3%[46.1 µM]	1.2%	0.0%	.	-7.0%[46.1 µM]	5.7%	.
CNc1ccc(-c2nc(-c3ccccc3C)no2)cc1[N+](=O)[O-]	.	22.5%[46.1 µM]	.	67.5%[activator]	-14.3%	-1.2%[46.1 µM]	.	-2.2%
CCCNC(=O)N1CCCN(S(=O)(=O)c2ccc3c(ccn3CC)c2)CC1	.	.	.	-2.3%	-0.2%	-23.8%[46.1 µM]	.	-11.5%

The list goes on:
SMILES	SARS PLP yeast	MARV entry inh	NS1 function inh	StopGo reporter	Cruzain inh Det	LASV entry inh	RE007 growth inh	Cruzain inh noDet
COC(=O)C1CCN(C(=O)[C@H](C)NC(=O)C2CC(=O)N(c3ccc(F)cc3)C2)CC1 (stereo not given in full)	-2.8%	.	1.9%	-18.4%	.	.	-6.3%	.
O=C(/C=C\c1ccc2c(c1)OCO2)Nc1nnc(SCC(=O)OCc2ccccc2)s1	-7.2%	10.6%	24.4%	.	-0.4%	23.5%	.	5.01µM*
O=C(NCc1ccccc1)[C@@H]1C[C@H]1[C@@H](NP(=O)(c1ccccc1)c1ccccc1)c1ccccc1	1.5%	?	0.4%	26.7%	-0.5%&6.5%	1.84µM*	0.1%	-4.2%&-7.0%
CN1CCN(c2oc(-c3ccccc3Cl)nc2S(=O)(=O)c2ccccc2)CC1	-3.5%	?	5.6%	-3.3%	.	20.6%	-0.9%	.
CN1CCN(C(=O)COCc2cc(-c3ccc4c(c3)OCO4)on2)CC1	0.2%	1.5%[46.1 µM]	0.5%	5.4%	.	?	16.8%	.
CC(C)(C)C(=O)Nc1nnc(SCC(=O)NCc2cccs2)s1	1.2%	3.8%	4.2%	-3.4%	1.4%	?	-0.6%	3.6%
